# Screens: PubChem, National Center for Advancing Translational Sciences (NCATS)
# Sfp inh – qHTS Assay for Inhibitors of Bacillus subtilis Sfp phosphopantetheinyl transferase (PPTase) | 310,000 tested, 3.5% active | 4'-phosphopantetheinyl transferase ffp (Bacillus subtilis), Q9F4F7 | AID 1490, 2009 | Potency, µM, inactives show max response, negative = inhibition, most hits filed as inhibitors | Biochemical Sfp PPTase activity, qHTS; active = well fitted inhibition curve with a large enough effect; inconclusive = small, poorly fitted or top-dose-only effect, or another doubt; inactive = no such curve, though single readings can be large or run the other way;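 also: the enzyme is Sfp with the accession as filed and its product quenches rhodamine fluorescence; potency is read from the fitted curve at half-maximal effect; 0% = enzyme reaction without inhibitor and -100% = no enzyme wells; top concentration of the series not given in the record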
#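 Fluorescence-quenching assay: 15 nM Sfp-PPTase preincubated 15 min at room temperature with compound, then 5 uM rhodamine-CoA and 12.5 uM BHQ-2-labelled YbbR peptide added. Fluorescence (ex 525/em 598 nm) read at start and after 30 min; difference gives rate.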
# ClpP mod – qHTS Assay for Activators of ClpP. purified B. subtilis ClpP, FRET peptide cleavage, 20 min. Potency, µM (top dose mostly 57.5 µM), inactives show top-dose activity change, negative = active. 340,000 tested, 1.9% active. AID 651965, 2013; active = well fitted falling curve with a large enough effect; inconclusive = small, poorly fitted or top-dose-only effect; inactive = no such curve, though single readings can be large or run the other way; also: potency is read from the fitted curve at half-maximal effect; the source files actives as falling curves though it sought activators and does not explain the sign; nearly all actives have a fitted effect of over 65% in size; many hits overshoot -100%
# Target sequence (P80244 whole entry, looked up): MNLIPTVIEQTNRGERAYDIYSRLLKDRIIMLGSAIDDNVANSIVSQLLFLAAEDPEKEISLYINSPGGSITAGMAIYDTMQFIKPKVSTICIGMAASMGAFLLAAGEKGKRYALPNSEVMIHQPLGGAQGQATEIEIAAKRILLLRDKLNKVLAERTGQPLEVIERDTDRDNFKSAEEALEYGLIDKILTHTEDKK
#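 Buffer: 100 mM Tris/HCl pH8, 100 mM KCl, 0.05% low protease BSA, 2.5% glycerol, 0.01% Tween-20. ClpP 10 microg/mL final; 20 min RT; delta FRET normalized to ADEP and DMSO controls.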
# D2 ag – Beta-Arrestin HTS for Positive Allosteric Modulators of the Human D2 Dopamine Receptor: Agonists | D(2) dopamine receptor (Homo sapiens), P14416 | DiscoveRx PathHunter D2 beta-arrestin, luminescence, 90 min; 100% = 57 uM dopamine signal | 360,000 tested, 0.084% active | activation, % (concentration not given with the values) | AID 624465, 2012; in the data active = activation above about 40%; inconclusive = about 15% to 40%; inactive = below about 15%; also: compound concentration not given in the record; the text of the record calls up to 30% inactive
# Target sequence (P14416 whole entry, looked up): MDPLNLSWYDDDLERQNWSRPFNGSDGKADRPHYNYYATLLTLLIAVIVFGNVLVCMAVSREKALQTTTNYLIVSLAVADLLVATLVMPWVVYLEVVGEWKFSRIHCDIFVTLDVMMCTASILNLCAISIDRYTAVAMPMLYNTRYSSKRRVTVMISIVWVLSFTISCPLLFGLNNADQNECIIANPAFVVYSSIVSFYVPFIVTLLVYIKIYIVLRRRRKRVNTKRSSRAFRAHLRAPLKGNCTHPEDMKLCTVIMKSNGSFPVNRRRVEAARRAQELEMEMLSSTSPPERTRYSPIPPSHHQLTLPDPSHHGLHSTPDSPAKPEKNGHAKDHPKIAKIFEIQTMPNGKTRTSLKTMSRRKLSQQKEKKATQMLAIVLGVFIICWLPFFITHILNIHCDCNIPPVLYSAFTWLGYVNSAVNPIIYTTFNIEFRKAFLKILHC
#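 Agonist mode: compounds alone added to overnight-plated D2 PathHunter cells for 90 min at 37 C, with 57 uM final dopamine (EC100) defining full response. Beta-arrestin recruitment detected by chemiluminescent reagent, read after 1 h at ambient temperature.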
# PINK1 expr mod – A Quantitative High throughput Screen to Identify Chemical Modulators of PINK1 Expression. Potency, µM (series often up to 76.6 µM), for inactives: top-dose activation (PINK1 increase), hits mostly activators. PINK1 immunofluorescence, high-content cytometry, 24 h. 410,000 tested, 0.2% active. AID 624263, 2012; active = well fitted activation curve with a large enough effect; inconclusive = small, poorly fitted or top-dose-only effect; inactive = flat fitted curve, though single readings scatter; cell line not stated here;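 also: potency is read from the fitted curve at half-maximal effect; % of control where 0% means no effect; nearly all actives have a fitted effect of over 65% in size; a mitochondrial uncoupler was the plate control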
#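 Cells are seeded, rested 12 hours, then given compound at five concentrations or DMSO for 24 hours. After fixation, blocking and antibody staining, PINK1 amount and mitochondrial localization are scored; CCCP serves as control.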
# Menin-MLL FL inh – qHTS Assay for Inhibitors Targeting the Menin-MLL Interaction in MLL Related Leukemias: Competition With Fluorescein Labeled MLL-derived Peptide | 290,000 tested, under 10 active | Fluorescence polarization, fluorescein-MLL peptide displacement from menin | FP activity change, % at 61.4 µM; inconclusive = falling polarisation curve, or a change in total fluorescence; inactive = total fluorescence flat and polarisation flat or rising; no compound was filed as active; the % refers to the polarisation; negative = inhibition;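 also: % of control where 0% means no effect; inhibitors lower the polarisation; unlabelled MLL peptide was the positive control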
# gsp agonist – qHTS for Agonist of gsp, the Etiologic Mutation Responsible for Fibrous Dysplasia/McCune-Albright Syndrome: qHTS; AID 624287, 2012; Potency, µM (titrated, usually from 76.9 µM), for the others: top-dose activation (cAMP increase), hits mostly activators; 340,000 tested, 0.13% active; gsp mutant cells, cAMP HTRF, 30 min; control for the full effect not named in the record; active = well fitted activation curve with a large enough effect; inconclusive = small, poorly fitted or top-dose-only effect, or another doubt; inactive = no such curve, though single readings can be large or run the other way; cell line not stated here;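 also: phosphodiesterase inhibitor Ro 20-1724 added with compounds to block cAMP breakdown; potency is read from the fitted curve at half-maximal effect; nearly all actives have a fitted effect of over 60% in size; about a fifth of the inactives were tested at one dose only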
#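 Cells stably selected in G418 were plated at 2000/well, grown 16-24 hr, then given compounds in DMSO with the PDE inhibitor […] (300 uM solution added) for 30 min at 37C; cAMP was read by HTRF.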
# gsp antag – qHTS for Antagonists of gsp, the Etiologic Mutation Responsible for Fibrous Dysplasia/McCune-Albright Syndrome: qHTS; gsp-mutant cells, cAMP HTRF, 30 min; control for the full effect not named in the record; Potency, µM (series often up to 76.9 µM), inactives show at the top dose activity change, negative = inhibition, most hits filed as inhibitors; 340,000 tested, 0.4% active; AID 624288, 2012; active = falling curve of any shape with a large fitted effect; inconclusive = falling curve, mostly with a smaller effect; inactive = flat or rising curve; cell line not stated here;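 also: intracellular cAMP measured with PDE inhibitor Ro 20-1724 present during compound exposure; potency is read from the fitted curve at half-maximal effect; % is scaled to controls: 0 for no effect and ±100 for the full control effect; nearly all actives have a fitted effect of over 65% in size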
#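 HTRF cAMP read-out (cAMP-d2 plus anti-cAMP antibody-K in lysis buffer, 30 min RT). Before lysis, cells are exposed to compounds with […] for 30 min at 37C in DPBS containing Ca/Mg, BSA and Tween 20.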
# * marks the source's active call; other numbers are inactive results; ? = inconclusive; · = not tested or not shown; [ ] = another dose, or the depositor's remark.
# Order of results – PINK1 expr mod, gsp antag, ClpP mod, D2 ag, gsp agonist, Sfp inh, Menin-MLL FL inh
O=C(NCc1ccccn1)C(=O)Nc1cccc2ccccc12
  -0.5%, -3.7%, ·, -1.5, -6.8%, 11.0%, -1.0
Cc1cc(NC(=O)COc2ccc(F)c(Cl)c2)no1
  -0.2%, 4.8%, -0.7%, -3.0, 10.7%, 3.7%, ·
CC1(C)CC(=O)C(CS(=O)(=O)c2ccccc2)=C(Cl)C1
  -1.2%, -0.8%, 1.5%, -3.7, -8.6%, 0.9%, ·
Cc1cc(C(=O)NN=C2CCCC2)c2ccccc2n1
  4.0%, 23.9%, -0.4%, -0.7, 2.5%[15.4 µM], ·, ·
CCCCn1c(N)c(N(CC(C)C)C(=O)C2CCN(S(=O)(=O)c3ccc(Cl)cc3)CC2)c(=O)[nH]c1=O
  0.4%, -0.8%, -2.8%, 1.0, 0.8%, ·, ·
CC(=O)Nc1ccc(SCC(=O)c2cc(C)n(-c3ccccc3)c2C)cc1
  0.7%, 0.8%, ?, 0.5, 6.2%[15.4 µM], -6.7%, 0.3
O=C(COC(=O)c1cc2ccccc2oc1=O)c1cccc([N+](=O)[O-])c1
  0.1%, 2.4%, 31.6µM*, -2.2, -29.5%, 3.6%, 1.7
C#CCOCC1CN(C)C(=O)O1 (stereo not drawn)
  3.1%, ·, -2.2%, -7.5, 10.0%, ·, ·
Cc1cccc(-n2c(-c3ccc(Br)o3)n[nH]c2=S)c1
  4.6%, -12.0%, 0.4%, -3.4, -35.5%[inhibitor], ·, ·
CCC(C)(C)NC(=O)C(c1ccccc1)N(Cc1cccs1)C(=O)Cn1nnc2ccccc21 (stereo not drawn)
  20.0%, -2.2%, 2.3%, -5.4, -11.1%, ·, ·
O=S(=O)(NC(=NCc1ccccc1)c1ccccc1F)c1ccccc1
  2.6%, 4.5%, 0.3%, 1.8, 19.5%, 3.0%, 0.3
CN(C)c1ccc(C(=O)OCc2ccccc2)cc1
  0.6%, 1.4%, -28.6%, -1.8, 18.1%, 2.2%, -2.5
CCOC(=O)C1=C(c2ccccc2)NC(=O)NC1c1cccc(OC)c1OC (stereo not drawn)
  0.3%, 2.8%, -2.7%, -3.8, 3.3%[15.4 µM], ·, ·
Cc1ccc(NS(=O)(=O)c2cc(C(=O)NCc3cccnc3)ccc2C)cc1
  1.1%, 1.7%, -0.5%, -1.9, 19.5%, 12.7%, ·
Cc1c(C)n(Cc2ccccc2)c2ncnc(N)c12
  -3.7%, ?, -10.9%, 0.3, 10.2%, -10.0%, -1.1
O=C(C1=COCCO1)N1CCN(S(=O)(=O)c2cccc(Cl)c2Cl)CC1
  0.0%, 0.7%, -2.6%, -2.7, -4.9%, 8.8%, 0.2
CCc1nc(-c2ccc(C)nc2OC)no1
  -1.2%, 11.2%, 0.2%, -3.6, 0.0%, 8.2%, 4.0
Cc1ccc(NC(=O)CSc2nnc(-c3cnccn3)n2-c2ccccc2)cc1
  14.8%[38.3 µM], 5.3%, -1.6%, -1.1, 18.7%, 11.0%, 5.4
O=C1CC(C(=O)NCc2ccccc2)N=C(N2CCCCC2)N1 (stereo not drawn)
  -0.4%, -7.9%, -0.3%, -2.8, -4.7%, 0.2%, -0.5
CS(=O)(=O)N1CCN(Cc2ccc(C(F)(F)F)cc2)CC1
  -2.9%, 17.4%, -1.4%, 1.0, -3.6%, 56.2µM*, -1.7
O=C(CCCN1C(=O)/C(=C/c2cccs2)SC1=S)NNC(=O)c1ccncc1
  20.0%, -7.1%, ·, -1.8, 5.4%[15.4 µM], 2.3%, 0.5
CCCCn1c(-c2ccco2)n[nH]c1=S
  -0.3%, 7.9%, 22.4µM*, 5.8, ?, -69.5%, -1.5
O=C(Cc1cccs1)NCc1ccc(F)cc1
  -4.4%, 5.9%, 0.3%, -1.7, ?, -4.8%, 1.0
C=CCSc1nc(C)c(CC(=O)OCCCC)c(=O)[nH]1
  -1.0%, -20.7%, 0.0%, -2.1, -24.6%, -10.3%, 2.7
O=C(Nc1nc2ccc(Cl)cc2s1)C1CC1
  0.5%, 0.3%, -2.5%, -4.7, -11.9%, ·, ·
CCOc1ccc(C(C)=O)cc1CSc1nnc(-c2cccs2)n1CC1CCCO1 (stereo not drawn)
  0.4%, -13.1%, -1.2%, -2.2, -30.4%, 13.1%, 2.4
CN(C(=O)COC(=O)CCC1CCCCC1)c1c(N)n(Cc2ccccc2)c(=O)[nH]c1=O
  -1.0%, 8.1%, -2.3%, 1.1, 8.4%, ·, ·
O=[N+]([O-])c1cccc(C=NNC(=S)NC23CC4CC(CC(C4)C2)C3)c1
  7.7%, -5.2%, 1.3%, -6.7, 11.6%, ·, ·
CCc1c(OC(C)=O)c2ccccc2n(C)c1=O
  0.0%, 1.0%, ?, 0.7, ?, 20.9%, 4.7
Cc1c(NC(=O)c2ccc(NS(=O)(=O)c3cccc([N+](=O)[O-])c3)cc2)c(=O)n(-c2ccccc2)n1C
  1.1%, -11.3%, 0.4%, 2.9, ?, ·, ·
O=C(COC(=O)c1cncc(Br)c1)NCC1CCCO1 (stereo not drawn)
  1.4%, 6.1%, 1.8%, -0.4, ?, 17.7%, -0.5
Cc1cc(F)ccc1NC(=O)c1cnccn1
  1.7%, 11.4%, ·, 1.8, -0.3%[15.4 µM], -20.3%, -4.1
CC1CCN(CCn2c(=S)[nH]c3cc4c(cc3c2=O)OCO4)CC1
  2.5%, 13.8%, ·, -2.1, -3.5%[15.4 µM], -18.8%, -4.3
CCOc1ccc(C(=O)Nc2ccccc2N2CCCC2)cc1
  -0.7%, -12.6%, -1.7%, -2.9, -24.3%, 0.7%, 3.6
COc1ccc(-c2[nH]ncc2CN2CCC(C(=O)N3CCOCC3)CC2)c(F)c1
  1.5%, 2.9%, -2.4%, 3.6, -0.5%[15.4 µM], -8.7%, -0.3
O=S(=O)(c1ccc(N2CCN(c3ccc(F)cc3)CC2)cc1)N1CCCC1
  17.8%[38.3 µM], 15.0%, 0.6%, 1.1, 24.7%, 22.6%, 2.3
COc1cccc(C(=O)NCC2CCN(c3ccc(S(=O)(=O)N4CCOCC4)cc3)CC2)c1
  0.3%, ?, -1.9%, -2.7, -1.9%, 5.9%, 16.3
CCNc1ncc2nc(C)c(=O)n(CCc3ccccc3)c2n1
  -0.6%, ·, ·, ·, ·, 16.3%, 11.5
COc1ccc(CN2C(=O)c3ccccc3C2=O)cc1
  0.3%, 3.4%, ·, 1.8, -28.7%, 10.0%, 3.1
O=C(Nc1ccccc1Cl)Nc1ccnn1C1CCN(C(=O)C2CCOC2)CC1 (stereo not drawn)
  -0.1%, ·, 0.4%, 0.1, -12.6%, ·, ·
CCc1nccn1CCC(=O)N1CCCC(N2CCN(c3cccc(Cl)c3)CC2)C1 (stereo not drawn)
  -0.7%, -8.2%, -1.0%, 0.7, 2.6%, 3.9%, ·
CCOC(=O)N1CCN(S(=O)(=O)c2ccc(C(=O)N(CCN(CC)CC)c3nc4ccc(C)cc4s3)cc2)CC1
  -0.9%, 10.5%, -1.1%, -4.7, -3.6%[15.4 µM], -9.3%, 1.4
Cc1cc(C(=O)OCCN2C(=O)c3ccccc3C2=O)c2ccccc2n1
  8.3%[38.3 µM], -16.6%, -5.8%, 0.6, -26.4%, -1.4%, 4.8
O=C(NCCc1c[nH]c2ccccc12)c1cnc2n(c1=O)CCS2
  0.8%, 8.7%, 2.2%, -0.3, -14.1%, -2.2%, 4.0
O=c1[nH]c(CN2CCN(S(=O)(=O)c3ccc4c(c3)OCCO4)CC2)nc2sc3c(c12)CCCC3
  10.5%, -16.4%, -2.4%, 0.8, -25.1%, -2.0%, 0.8
CCc1ccc(OCC(=O)Nc2cccc3c2CCCC3)cc1
  15.2%, ?, -1.3%, -5.8, -37.5%[inhibitor], -0.1%, 2.9
CCn1c(SCC(=O)Nc2ccccc2)nnc1-c1ccc(S(=O)(=O)N2CCOCC2)cc1
  -0.6%, -9.0%, 1.3%, -2.1, -25.1%, 9.5%, 0.9
Cn1nc(-c2ccccc2)cc1NC(=O)CCCC(=O)O
  2.4%, -3.5%, 0.7%, -1.0, 2.5%[15.4 µM], 25.2%, 0.9
Cc1cc(C(=O)N2CCN(c3ccccn3)CC2)no1
  ?, 6.5%, -8.1%, -0.2, -2.3%, 11.6%, 1.2
Cc1cccc(N(CC(=O)NC2CCCCC2)C(=O)c2csnn2)c1
  -0.2%, 12.7%, 0.8%, -4.0, 2.1%[15.4 µM], 14.4%, ·
O=C(O)c1ccc2c(=O)n3c(nc2c1)/C(=C/c1ccc(Cl)c([N+](=O)[O-])c1)CC3
  9.0%, -17.5%, -1.0%, -5.0, -1.7%[15.4 µM], 7.1%, 0.1
CCOC(=O)c1ccc(NC(=O)Nc2nc3ccccc3s2)cc1
  4.0%, ·, -4.6%, -1.2, ?, ·, ·
CC1(C)CC(=O)C(C=NCCN2CCN(C(=O)c3ccccc3)CC2)=C(O)C1
  -0.8%[38.3 µM], 2.6%, 0.4%, -4.1, 25.1%, 2.8%, -0.6
O=C(O)c1ccc(N/N=C/c2ccc(-c3cc(Cl)ccc3Cl)o2)cc1
  ?, ?, -2.1%, 7.4, -19.8%, -26.2%, 11.7
COc1cccc(/C=C/C(=O)OCC(=O)c2c[nH]c3ccccc23)c1
  4.6%, ?, ?, 1.3, ?, ·, ·
COc1ccc(C(=O)Nc2cccc(C(=O)Nc3cc(C)ccn3)c2)cc1
  -1.4%, -6.9%, ·, 4.2, 22.7%, ·, ·

# Hits appear at their usual frequency; overall some 5.1% were active at least once.
